# High-throughput results as filed in PubChem.
# HCMV UL50-53 inh: inhibitors of HCMV UL50-UL53 interaction, biochemical, HTRF. HCMV UL50-UL53 nuclear egress complex (human cytomegalovirus). normalized percent inhibition. inhibition, % (no concentration beside the values). 190,000 tested, 0.15% active. AID 1918969, 2023;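 active means both replicates at 50% or more, plus weaker picks with an unusually low signal ratio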;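 further: stock transfer was 100 nL into about 20 µL; 0% = negative control wells and 100% = wells with untagged competitor protein; inactives centre near -12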
# Sa growth 42C: S. aureus growth inhibition at 42 and 30 °C, primary screen, LtaS inhibitor project, RN4220, two temperatures. OD600, 20 h, 42 °C; stronger effect = lower value. relative growth, % (test concentration not listed). 170,000 tested, 0.53% active. AID 720641, 2013;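 active means growth at 42 °C up to 50% and 20 or more points under that at 30 °C, or under 10% at both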;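 further: 300 nL library stock went into each well; scaled to the means of positive and negative controls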
# GIV-Gai inh: inhibitors of GIV peptide binding to Galpha-i3, primary screen, biochemical, fluorescence polarization, FITC-GIV GBA peptide, rat Galphai3. Guanine nucleotide-binding protein G(i) subunit alpha-3 (Rattus norvegicus), P08753. 90 min; stronger effect = lower value; scaled: aluminum fluoride 0%, vehicle 100%. percent of control (FP), % (concentration not given with the values). 210,000 tested, 0.42% active;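 active means replicate mean at 85% of control or lower, very high polarization wells dropped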;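 further: wells of about 15 µL received 100 nL stock; the first replicate is given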
# Target sequence (P08753 whole entry, looked up): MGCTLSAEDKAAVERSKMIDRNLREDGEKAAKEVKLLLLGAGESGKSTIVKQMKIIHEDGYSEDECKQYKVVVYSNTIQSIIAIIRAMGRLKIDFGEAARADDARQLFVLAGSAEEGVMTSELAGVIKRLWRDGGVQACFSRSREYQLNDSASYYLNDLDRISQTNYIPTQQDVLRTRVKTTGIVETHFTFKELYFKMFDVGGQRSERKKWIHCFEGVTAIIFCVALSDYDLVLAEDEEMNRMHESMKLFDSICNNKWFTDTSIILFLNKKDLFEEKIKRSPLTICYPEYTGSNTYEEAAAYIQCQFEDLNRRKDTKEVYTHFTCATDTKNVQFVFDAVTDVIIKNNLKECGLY
# Sa growth 42C second temp: recorded beside Sa growth 42C, whose call it bears; relative growth, %; measured here: growth at 30 °C;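 optical density after 20 h as mean of two plates; 100% = untreated growth and lower means inhibition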
# Starred values were filed as active, the others as inactive; . = not tested or not shown. No enrichment for hits; 0.83% or so of the library scored in one or more.
# Start of the listing, in advance:
SMILES,HCMV UL50-53 inh,Sa growth 42C,Sa growth 42C second temp,GIV-Gai inh
C[n+]1c(COc2ccccc2O)sc2ccccc21,-21,70,68,.
CC1=NN(c2ccccc2)C(=O)/C1=C\c1ccc(N(C)C)cc1,-21,97,91,105
Cc1cccc(NC(=O)c2ccc(C(=O)Nc3cccc(C)c3C)cc2)c1C,-45,104,81,111
CSc1ncc(S(=O)(=O)Cc2cccs2)c(N)n1,-14,92,88,108

# The whole of this part, from the first entry:
SMILES,HCMV UL50-53 inh,Sa growth 42C,Sa growth 42C second temp,GIV-Gai inh
C[n+]1c(COc2ccccc2O)sc2ccccc21,-21,70,68,.
CC1=NN(c2ccccc2)C(=O)/C1=C\c1ccc(N(C)C)cc1,-21,97,91,105
Cc1cccc(NC(=O)c2ccc(C(=O)Nc3cccc(C)c3C)cc2)c1C,-45,104,81,111
CSc1ncc(S(=O)(=O)Cc2cccs2)c(N)n1,-14,92,88,108
O=C(O)c1ccccc1C(=O)Nc1c(-c2ccccc2)nc2ccccn12,-6,.,.,108
CCn1cnc2cc(NC(=O)c3ccccc3)ccc21,-12,98,83,106
O=C(NCCc1ccc(Cl)cc1)c1ccc2c(Cl)c3c(nc2c1)CCC3,-35,.,.,98
CCN(C(=O)c1cccc2c1SCCC2=O)c1cc(Cl)ccc1OC,.,91,83,103
NC(=O)c1oc2ccccc2c1NC(=O)CS(=O)(=O)c1ccccc1,-57,99,80,103
Cc1cc(C(=O)CSc2nnc(-c3sc4ccccc4c3Cl)o2)c(C)n1C1CC1,-4,95,100,.
CSc1nc2nc(N)nc(N)c2s1,-10,101,94,.
Cc1nc2[nH]c(=O)[nH]c(=O)c2s1,0,101,94,114

# Reformatted as tab-separated lines: part of the list above
SMILES	HCMV UL50-53 inh	Sa growth 42C	Sa growth 42C second temp	GIV-Gai inh
CSc1ncc(S(=O)(=O)Cc2cccs2)c(N)n1	-14	92	88	108
Cc1nc2[nH]c(=O)[nH]c(=O)c2s1	0	101	94	114
O=C(O)c1ccccc1C(=O)Nc1c(-c2ccccc2)nc2ccccn12	-6	.	.	108
CCn1cnc2cc(NC(=O)c3ccccc3)ccc21	-12	98	83	106
CSc1nc2nc(N)nc(N)c2s1	-10	101	94	.

# (continued)
SMILES,HCMV UL50-53 inh,Sa growth 42C,Sa growth 42C second temp,GIV-Gai inh
O=C(Nc1ccccc1)c1ccccc1OCc1nnc(-c2cccs2)o1,-22,102,96,.
O=C(NC(c1ccccc1)c1ccccc1)c1cccnc1,9,98,118,.
O=C(Nc1ccc(N2CCCCC2)cc1)C1CCCCC1,-15,113,92,.
CCOc1ccc(C2Nn3c(CC)nnc3SC2C(=O)Nc2cccc(C)c2C)cc1 (stereo not given),6,.,.,106
NC(=O)Cn1nnnc1-c1ccccc1N,2,101,92,101
COc1ccc(C(=O)CC2(O)C(=O)Nc3c(C)cccc32)c(OC)c1OC (stereo not given),.,102,84,106
Cc1ccc(N2C(=O)CC(N3CCc4ccccc43)C2=O)cc1Cl (stereo not given),2,113,93,99
N#Cc1ccccc1CSc1nnc(-c2cccs2)n1Cc1ccccc1,-3,92,85,.
O=C(O)Cc1ccc2c3c(cccc13)CC2,-18,105,91,97
CCOC(=O)c1cnn2c1nc(N)c1ccccc12,-3,118,86,107
COc1ccc(CN(Cc2cccs2)C(=O)Cc2cccs2)cc1OC,-8,92,84,.
Cc1nc2ccccc2c(=O)n1/N=C/c1ccc(Cl)c(Cl)c1,-38,94,87,102
Cc1ccc(Nc2cc(N(C)C)c3nonc3c2[N+](=O)[O-])cc1Cl,-22,.,.,105
O=C(Nc1cccc(Cl)c1)C1CCC(=O)N1S(=O)(=O)c1ccccc1 (stereo not given),-25,.,.,106
Cc1cccc2c(=O)n(CCNCc3ccccc3)c(C)nc12,-15,80,96,107
COc1cccc(-c2nnc(SCC(=O)N3CC(C)OC(C)C3)n2C)c1 (stereo not given),-38,72,94,.
CN1CCN(C(=O)c2cnn(-c3cccc(F)c3)c2C2CCN(C(=O)OC(C)(C)C)CC2)CC1,.,87,94,111
CCOCCCNC(=O)C1c2c(n(C)c3ccccc23)SCC(=O)N1c1ccc(F)cc1F (stereo not given),-15,.,.,100
CCC(C(=O)Nc1ccccc1OC)n1c(C(=O)OC)cc2occc21 (stereo not given),.,107,71,98
Cn1c(CN(c2ccc(F)cc2)S(C)(=O)=O)nnc1SCC(=O)NC1CC1,-24,.,.,101
COc1ccc(-c2noc(-c3cc(-c4cccc(Br)c4)n[nH]3)n2)cc1OC,4,.,.,106
O=C(Nc1ccc(F)cc1F)c1cnccn1,.,88,78,104
Cc1ccc(NC(=O)C(c2ccccc2)N(C)C)cc1Cl (stereo not given),2,132,95,.
Cc1oc(-c2ccc(C(=O)NCc3ccc(F)cc3)cc2)nc1CS(=O)c1ccccc1 (stereo not given),.,143,94,105
CC(=O)Nc1ccc(NC(=O)Cc2ccccc2)cc1,9,108,103,101
CCCN1CCCc2cc(CN(CCCN3CCOCC3)C(=O)Nc3ccc(OCC)cc3)ccc21,.,111,95,101
O=c1ccc(-c2ccc(Cl)c(S(=O)(=O)N3CCc4ccccc4C3)c2)n[nH]1,-31,.,.,103
COc1cccc(C2c3c(oc4ccc(C)cc4c3=O)C(=O)N2CCCN2CCOCC2)c1OC (stereo not given),.,115,98,100
COC(=O)c1c(C)oc2cc(Br)c(OC)cc12,-2,100,92,98
COc1cccc(C(=O)CN2C3=NCCN3c3ccccc32)c1,-18,78,69,105
O=C(OCC(=O)C12CC3CC(CC(C3)C1)C2)c1ccc(Br)o1,-20,97,93,.
CCc1cccc(NC(=S)N2CCC(c3ccccc3)C2)c1 (stereo not given),.,92,88,100
Cc1nn2c(=O)cc(CN(C)Cc3ccccc3)nc2s1,-21,.,.,105
COc1ccc(CNC(=O)CN(c2ccc(C)cc2)S(=O)(=O)c2c(C)n[nH]c2C)cc1,-28,103,87,103
O=C(COc1ncnc2ccccc12)N1CCc2ccccc21,-31,106,89,.
CCOc1ccc(C2C(C(N)=O)=C(C)Nc3nc(SCc4ccccc4F)nn32)cc1 (stereo not given),-66,130,92,98
O=C(CNc1ccc(F)cc1F)NC(=O)NCc1ccco1,-26,66,92,.
CCNC(=O)N1CCCC(c2cccc(C(=O)N3CCC(N4CCCCC4)CC3)c2)C1 (stereo not given),-20,.,.,109
COc1ccc(N(Cc2cc3cccc(C)c3[nH]c2=O)S(C)(=O)=O)cc1,-7,.,.,97
CCOc1ccc(CCNC(=O)c2nnc(Cc3ccc(Cl)cc3)o2)cc1OCC,0,110,99,101
CCC(C(=O)OC)n1cnc2c(nnn2-c2cccc(Cl)c2)c1=O (stereo not given),.,80,79,99
CC1=C(C#N)c2nc(N)c(C#N)c(C)c2/C1=C\C=C\c1ccccc1,4,79,92,109
COc1ccccc1NC(=O)Cc1csc(-n2nc(C)cc2C)n1,-22,.,.,100
COc1ccc(CCNc2nc(Cl)nc(N3CC4CC(C3)c3cccc(=O)n3C4)n2)cc1OC (stereo not given),-8,86,75,.
COc1ccc(NC(=O)c2oc3ccccc3c2NC(=O)COc2ccc(C(C)C)cc2)c(OC)c1,-24,101,86,99
O=C(Cc1csc(N2CCOCC2)n1)N/N=C/c1ccccc1C(=O)O,-16,79,88,.
CN(Cc1ccccc1)S(=O)(=O)C1CCS(=O)(=O)C1 (stereo not given),17,108,99,108
COC(=O)C1CCN(C(=O)c2sc3nc(-c4ccccc4)cn3c2C)CC1,-1,.,.,105

# In another format: results already given.
compound	HCMV UL50-53 inh	Sa growth 42C	Sa growth 42C second temp	GIV-Gai inh
O=C(Nc1ccccc1)c1ccccc1OCc1nnc(-c2cccs2)o1	-22	102	96	.
O=C(NC(c1ccccc1)c1ccccc1)c1cccnc1	9	98	118	.
O=C(Nc1ccc(N2CCCCC2)cc1)C1CCCCC1	-15	113	92	.
CCOc1ccc(C2Nn3c(CC)nnc3SC2C(=O)Nc2cccc(C)c2C)cc1 (stereo not given)	6	.	.	106

# The listing continues.
SMILES,HCMV UL50-53 inh,Sa growth 42C,Sa growth 42C second temp,GIV-Gai inh
N#Cc1ccccc1CSc1nnc(-c2ccc(Br)cc2)o1,-12,89,96,102
Cc1cc(C(=O)OCC(=O)N2CCCC2)c2ccccc2n1,-56,82,94,.
CN(C)C(=O)Cn1c2[n+](c3ccccc31)CC(O)CS2 (stereo not given),-20,91,99,95
C[N+]1(C2CCCCC2)Cc2ccccc2C1,.,131,86,101
Cc1ccc2c(c1)-c1nc(-c3ccc4c(c3)NC(=O)CO4)cc(-c3ccc(Cl)cc3)c1CO2,-10,98,84,109
COc1ccc(CCNS(=O)(=O)c2cc(C(=O)O)ccc2Cl)cc1OC,-3,95,98,.
Nc1ccc2c(c1)CCC2=O,-21,93,91,144
CCn1c(CN2CCN(c3ccccc3F)CC2)nc2c1c(=O)n(C)c(=O)n2C,5,106,93,97
O=C(CCc1nc2ccccc2s1)N1CCN(c2ccccn2)CC1,2,82,87,.
COc1ccc(S(=O)(=O)N(C)CC(=O)O)cc1,-10,106,102,104
CC1=C(C(=O)Nc2ccccc2C)C(c2ccccc2O)NC(=S)N1 (stereo not given),22,95,119,96
